# Compound activity as filed in PubChem.
# RGS16-Gao – regulators of human RGS16-Galphao interaction. O15492+P09471. 220,000 tested, 0.38% active. bead-based flow cytometry RGS16-Galphao binding, fluorescence; actives lie on both sides. binding response (% of control), % at 10 µM. AID 1441;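 active = below 25% or above 175%, edge rows of some plates excepted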;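 also: Galphao activated by GDP with aluminum fluoride before binding; 100% = wells without compound and 0% = beads without RGS; some results beyond the cut were filed as inactive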
# Target sequence (O15492 whole entry, looked up): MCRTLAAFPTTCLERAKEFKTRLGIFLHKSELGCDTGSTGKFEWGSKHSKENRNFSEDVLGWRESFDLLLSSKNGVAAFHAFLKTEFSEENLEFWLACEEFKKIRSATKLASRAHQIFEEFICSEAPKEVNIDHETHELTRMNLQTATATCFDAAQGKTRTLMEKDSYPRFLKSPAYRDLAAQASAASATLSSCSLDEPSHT
# Target sequence (P09471 whole entry, looked up): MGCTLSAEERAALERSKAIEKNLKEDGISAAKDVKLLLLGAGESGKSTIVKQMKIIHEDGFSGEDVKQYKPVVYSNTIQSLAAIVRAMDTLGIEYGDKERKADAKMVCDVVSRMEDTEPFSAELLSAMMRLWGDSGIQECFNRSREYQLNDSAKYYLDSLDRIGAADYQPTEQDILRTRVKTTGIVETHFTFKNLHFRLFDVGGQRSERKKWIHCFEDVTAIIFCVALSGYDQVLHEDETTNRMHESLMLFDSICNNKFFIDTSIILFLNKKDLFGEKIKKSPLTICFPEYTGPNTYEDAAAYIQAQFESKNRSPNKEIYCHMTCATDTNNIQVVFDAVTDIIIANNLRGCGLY
# PKD1 inh – blocks activity of human protein kinase D1; PKD1 kinase fluorescence polarization assay; inhibition, %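 (about 10 µM by stock and volumes)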; 200,000 tested, 0.056% active; Q15139;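 active = inhibition of 50% or more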;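 also: controls were vehicle for no effect and a reference inhibitor for full effect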
# GALR2 agonist – GALR2 (human) receptor agonism; GALR2-expressing cells, agonist activation read-out; O43603; AID 803; 140,000 tested, 0.48% active; activation, %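 (tested at 5 µM)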;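 active = above mean plus 3 SD of all compounds, about 5% in these data, not always enough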;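 also: 0% = vehicle buffer wells and 100% = reference agonist at full effect; tested in CHO reporter cells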
# Target sequence (O43603 whole entry, looked up): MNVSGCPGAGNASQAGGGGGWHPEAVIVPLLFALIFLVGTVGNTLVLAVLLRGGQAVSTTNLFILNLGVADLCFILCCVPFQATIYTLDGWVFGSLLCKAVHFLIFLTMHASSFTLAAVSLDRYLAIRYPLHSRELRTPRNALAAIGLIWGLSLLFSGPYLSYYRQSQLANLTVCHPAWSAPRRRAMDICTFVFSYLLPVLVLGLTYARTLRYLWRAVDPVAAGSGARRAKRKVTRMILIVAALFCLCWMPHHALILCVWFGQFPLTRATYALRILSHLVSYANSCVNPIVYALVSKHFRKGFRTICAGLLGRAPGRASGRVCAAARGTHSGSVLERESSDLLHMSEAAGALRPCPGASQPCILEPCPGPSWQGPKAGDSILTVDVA
# HSV replic up – increases HSV replication in cells | HSV replication augmentation in cells, fold increase | maximum fold increase | 220,000 tested, 0.005% active | AID 1956;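 active = peak rise of 1.5-fold or more in the series; inconclusive = self-fluorescent or not available for retest; tested in PC3 cells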;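 also: first round at 10 µM; read as green reporter fluorescence; hits show the peak of a series up to 25 µM; 1 = signal of infected wells without compound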
# Insulin prom inh – TRM-6 insulin promoter activity inhibition; inhibition, % at 2 µM; TRM-6 cells (human fetal islet line), insulin promoter-eGFP reporter, imaging; reporter expression induced with tamoxifen; 130,000 tested, 0.9% active;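 active = inhibition above the mean plus 3 SD, with well images judged a real hit on visual review, cut at about 60% in these data, passing the limit was not always enough; inconclusive = inhibition over the cutoff but images rejected on review; inactive = inhibition not above the cutoff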
# Insulin prom inh cell count – further read-out of Insulin prom inh, marked with its call; normalized cell count, %; measured here: cell count, toxicity; reference of the scale not given here;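 cells exposed to compound for 48 h; stained nuclei by imaging scaled within each plate; lower means fewer cells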
# HSV replic up primary fold – further read-out of HSV replic up, marked with its call; fold increase; compound at 10 µM; measured here: primary screen fold increase 10 uM; tested in PC3 cells;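 GFP signal in the first replicate; 1 = infected wells without compound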
# Numbers without * were called inactive; i = inactive; ? = inconclusive; nt = not tested or not shown; & = joins results of further samples. Outcome played no part in choosing rows; overall some 1.3% were active at least once.
compound,PKD1 inh,HSV replic up,GALR2 agonist,HSV replic up primary fold,RGS16-Gao,Insulin prom inh cell count,Insulin prom inh
Cc1ccc(C)n1CCN1CCN(C(=O)CSc2nc3ccccc3nc2N2CCOCC2)CC1,2,i,0.0,0.92,95,nt,nt
O=C(NCCC1=CCCCC1)C(=O)NCC(c1ccco1)N1CCN(c2ccc(F)cc2)CC1 (stereo not given),-3,i,-1.7,0.76,80,119,21
COc1ccc(N(CC(O)Cn2c(C)nc3ccccc32)S(=O)(=O)c2ccc(C)cc2)cc1 (stereo not given),0,nt,-1.8,nt,103,114,-162
O=C(CCn1nc(-c2ccc(Cl)cc2)ccc1=O)NCCCN1CCCCCC1,-13,i,-2.6,0.86,116,73,7
C/C(=N/NC(=O)C1COc2ccccc2O1)c1ccc(Br)s1 (stereo not given),nt,i,nt,1.1,87,nt,nt
C/C(=N\NC(=S)NC(C)C)c1ccc(C(C)(C)C)cc1,-7,i,nt,1,98,nt,nt
CCOc1ccc(N2CC(C(=O)NCCC3=CCCCC3)CC2=O)cc1 (stereo not given),21,nt,-1.4,nt,99,77,33
COc1cc(/C=N/N=C2\CC3CCC2(C)C3(C)C)ccc1O (stereo not given),-9,nt,-1.3,nt,99,140,10
O=C(NN1C(=O)c2ccccc2NC1c1ccco1)c1ccccc1 (stereo not given),-9,i,nt,0.96,101,110,-43
O=C(Cn1c(=O)n(Cc2ccco2)c(=O)c2ccccc21)Nc1cccc(Cl)c1,-4,i,-1.7,1,103,148,20
CN(C)S(=O)(=O)c1ccc(C(=O)OCC(=O)NCc2ccccc2)cc1,-2,i,nt,0.97,99,nt,nt
C=CCNC(=O)c1onc(CSc2ccc(F)cc2)c1C(=O)NCCOC,-12,i,-1.1,0.9,105,nt,nt
CCN(CC)c1ccc(NC(=O)C2CCC(CNc3c(N4CCCC4)c(=O)c3=O)CC2)c(C)c1 (stereo not given),nt,i,nt,1,101,nt,nt
CCOc1ccc(NC(=S)N(CCc2c(C)[nH]c3ccccc23)Cc2cccnc2)cc1,-1,nt,-0.6,nt,74,80,40
CCCCN(C(C)=O)c1c(N)n(CCC)c(=O)n(CC(=O)Nc2cc(Cl)cc(Cl)c2)c1=O,9,i,nt,0.91,93,nt,nt
Cc1cc2ccccc2n1CCNC(=O)COc1ccc2ccccc2c1,4,i,-1.3,0.83,103,nt,nt
COc1ccc(OCC(=O)NNC(=O)c2cccnc2)cc1,-15,i,-1.5,0.82,104,79,13
CCOc1ccc(NC(=O)Nc2ccc(Br)cn2)cc1,6,i,nt,1.1,100,nt,nt
COc1ccc(OC)c(CNc2ccc([N+](=O)[O-])cc2C)c1,-2,i,nt,1,144,95,-33
O=C(CN(CC1CCCO1)C(=O)CCC(=O)Nc1nccs1)NCc1ccc2c(c1)OCO2 (stereo not given),-3,i,-0.5,1.1,189,158,-42
COc1ccc(/C=N/N2C(=N)SCC2=O)cc1,nt,i,nt,0.99,97,nt,nt
Cn1ccnc1C(=O)c1cc(SCC(=O)NCc2ccccc2)nc2ccccc12,-3,i,nt,0.67,101,66,0
Cc1ccc(Nc2c(-c3ccccc3O)nc3ncccn23)cc1,nt,i,nt,0.97,102,nt,nt
CCCCNC(=O)CS(=O)Cc1nc(-c2cccs2)oc1C (stereo not given),-5,i,-2.6,0.98,96,nt,nt
CN1Cc2sc(N)c(C#N)c2CC1(C)C,-6,?,1.1,nt,101,nt,nt
Cc1ccc(OCC(=O)N2CCN(C(=O)c3ccc([N+](=O)[O-])cc3)CC2)cc1,1,i,nt,0.94,41,nt,nt
O=C(COc1ccc(Br)cc1CNC1CCCCC1)NCCc1ccccc1,1,i,nt,0.76,99,nt,nt
CCC(C)N1C(=O)CN(C2CCCCCC2)C(=O)C1c1ccccc1F (stereo not given),1,i,nt,0.91,99,41,-220
CN(Cc1ccccc1)Cc1nc2c(c(=O)n(C)c(=O)n2C)n1CCCc1ccccc1,2,i,-0.6,0.77,87,27,-444
CCNC(=O)OCCC12CC3CC(CC(C3)C1)C2,-11,i,-0.4,0.96,95,nt,nt
COc1ccnc(Oc2ccccc2)c1C(=O)N/C=N/OCc1ccccc1F,2,i,nt,0.98,88,nt,nt
COC(=O)c1cccc(C23CC4(C2)[C@H](CN(Cc2ccc(C(F)(F)F)cc2)[C@@H]4c2ccccc2)C3c2ccccc2)c1 (stereo not given in full),nt,i,nt,0.94,98,nt,nt
Cn1c(SCc2nc3ccccc3[nH]2)nnc1-c1ccccn1,-4,i,-0.9,1,102,170,-3
Cc1ccccc1OCCn1c(=O)oc2ccccc21,1,i,1.6,0.79,104,105,-22
C=CCN1C(=O)C(Cc2ccc(F)cc2)S/C1=N/N=C/c1cccs1 (stereo not given),-3,i,0.7,1,101,82,49
COC(=O)c1cn(NC(=O)Cn2nc([N+](=O)[O-])c(Cl)c2C)c(=O)c2ccccc12,-6,i,nt,0.92,100,nt,nt
Cc1ccnc(SCC(=O)c2cccc([N+](=O)[O-])c2)n1,5,i,-0.6,0.93,101,nt,nt
O=C(O)CSCC(=O)NCc1ccc(Cl)cc1Cl,2,i,nt,1,102,81,29
O=C(NCCc1nnc2ccc(NCc3ccccc3Cl)nn12)c1ccccc1,-2,i,nt,1.1,101,69,-53
CC(C)(C)c1ccc(OC(=O)c2ccc3nsnc3c2)cc1,1,i,-0.2,1.2,101,nt,nt
Cc1cccc(OCC(=O)Nc2ccc(S(=O)(=O)Nc3ccccn3)cc2)c1,2,i,nt,1.1,50,nt,nt
CCn1c(SCc2c(F)cccc2Cl)nnc1-c1ccco1,-13,i,-2.5,0.85,97,126,40
Cc1ccc(/C=N/Nc2ccc(C(=O)O)cc2)s1,3,i,nt,0.9,102,82,-13
CCN(CC)CCNC(=O)c1ccc(NC(=O)c2ccc(F)cc2)cc1,5,i,nt,0.99,93,nt,nt
CCOC(=O)CSc1cc(CS(=O)c2ccc(Cl)cc2)nc(-c2ccccc2)n1 (stereo not given),0,i,-2.6,1,99,121,13
O=C1C2(c3ccccc3)CN(CCCO)CC1(c1ccccc1)CN(CCCO)C2,-4,i,-2.8,0.96,103,96,-106
CCN(CC)C(=O)CSc1nc2cc(OC)c(OC)cc2c(=O)n1Cc1ccc(Cl)cc1,-10,i,0.4,0.56,99,117,23
CCCCN1C(=O)/C(=c2\sc3nc(=O)c(-c4ccccc4)nn3c2=O)c2ccccc21,-6,i,-2.0,0.93,100,127,27
COc1cc(C2C(C(C)=O)=C(O)C(=O)N2CCN(C)C)ccc1O (stereo not given),-8,i,-2.0,0.96,104,176,-14
Cc1ccc(SCC2CNc3nc4ccccc4c(=O)n32)c(C)c1 (stereo not given),-9,i,-1.9,0.97,106,70,30
CCN(CC(=O)NCc1cccs1)S(=O)(=O)c1cccc(C(C)=O)c1,0,i,-1.1,0.87,103,nt,nt
COc1ccc(-c2c(S(=O)(=O)c3ccccc3)cnn2-c2ccccc2)cc1,-2,i,-0.8,0.82,96,nt,nt
O=[N+]([O-])c1cccc(Cl)c1NCCNS(=O)(=O)c1ccc(Cl)cc1,-7,i,-1.6,0.84,130,nt,nt
O=C(O)Cc1sc(Nc2ccc(F)cc2)nc1-c1cccs1,-1,i,nt,1.2,91,110,-15
Cn1c(Cc2ccccc2)nnc1SCC(=O)N1CCOCC1,-14,i,-1.2,1,91,77,63
COc1ccc(-c2nc(-c3cccc(C)c3)[nH]c(=O)c2C#N)cc1,-9,i,-1.4,0.71,95,nt,nt
Cn1c(=O)[nH]c(=O)c2c1nc(CN1CCN(c3cccc(Cl)c3)CC1)n2CCCc1ccccc1,5,i,0.4,0.93,101,nt,nt
CC(=O)N(C(C)=O)c1ncnc2c1c(-c1ccc(Cl)cc1)nn2C(C)(C)C,-2,i,nt,0.95,99,nt,nt
O=C(Nc1ccc2c(c1)OCCO2)c1ccc2nccnc2c1,-2,i,-2.6,0.87,nt,190,54
Cc1nn(C)c(C)c1NC(=O)CSc1nc(C2CC2)nc2c1cnn2-c1ccccc1,-12,i,-0.6,0.94,100,75,65

# Other compounds.
compound,PKD1 inh,HSV replic up,GALR2 agonist,HSV replic up primary fold,RGS16-Gao,Insulin prom inh cell count,Insulin prom inh
CCCn1c(N)c(C(=O)CSc2nnc(-c3ccco3)n2Cc2ccccc2)c(=O)[nH]c1=O,5,i,-1.1,1.1,97&119,149,-22
Cc1nc2sc(C(c3ccco3)N3CCN(C(c4ccccc4)c4ccccc4)CC3)c(O)n2n1 (stereo not given),-9,i,-0.1,0.95,nt,149,20
CCOC(=O)c1c(/N=C/C2C(=O)CCCC2=O)sc2c1CCCC2,-6,i,nt,1,99,88,-50
Cc1ccc(C)n1-c1ccc(NC(=O)c2ccccc2)cc1,-14,i,-1.4,0.89,99,76,35
Cc1c(NC(=O)c2cccc(-c3cc4ccccc4oc3=O)c2)cccc1-c1nc2ncccc2o1,-2,i,-1.8,0.85,102,nt,nt
Cc1ccc2nc(CSc3nnc(Nc4ccccc4C)s3)cc(=O)n2c1,5,i,-1.4,0.96,86,30,-162
Nn1cc(-c2ccccc2)nc1SCC(=O)N1CCN(S(=O)(=O)c2ccccc2)CC1,3,i,-0.3,0.78,96,177,-53
COC(=O)C1=C(C)Nc2ccc(C)cc2S1,-8,i,-2.8,0.99,93,nt,nt
COc1ccc(/C=C2/SC(=O)N(CCNC(=O)C3CCCN3C(=O)c3cccs3)C2=O)cc1 (stereo not given),-21,i,-2.4,0.96,104,55,-30
Cn1c(SCc2cc(=O)[nH]c(C(C)(C)C)n2)nnc1C(F)(F)F,nt,i,nt,1.1,99,nt,nt
C=CCSc1nnc(NC(=O)CSc2nc3ccccc3o2)s1,-3,nt,-2.4,nt,82,89,11
CCN(C(=O)Cc1c(C(=O)O)n(C)c2ccccc12)c1ccc(F)cc1,-7,i,nt,0.84,105,37,7
Cc1nnc(NC(=O)CSc2ccc(-c3ccc(Cl)cc3)nn2)s1,1,i,nt,0.77,99,nt,nt
COc1ccc(N2CCn3c2nc2c3c(=O)n(CCc3ccccc3)c(=O)n2C)c(OC)c1,-2,i,-0.1,1.1,97,nt,nt
CCOc1ccc(CCNC(=O)C2CCN(c3ccc(N4CCOCC4)nn3)CC2)cc1OCC,-12,nt,-2.0,nt,99,nt,nt

# One compound at a time (already shown). Order of screens: PKD1 inh, HSV replic up, GALR2 agonist, HSV replic up primary fold, RGS16-Gao, Insulin prom inh cell count, Insulin prom inh
# CCOC(=O)c1c(/N=C/C2C(=O)CCCC2=O)sc2c1CCCC2 is entered as -6, i, nt, 1, 99, 88, -50
# Cc1c(NC(=O)c2cccc(-c3cc4ccccc4oc3=O)c2)cccc1-c1nc2ncccc2o1 is entered as -2, i, -1.8, 0.85, 102, nt, nt

# Next part:
compound,PKD1 inh,HSV replic up,GALR2 agonist,HSV replic up primary fold,RGS16-Gao,Insulin prom inh cell count,Insulin prom inh
Cc1cc(NS(=O)(=O)c2ccc(NC(=O)c3cc4ccccc4o3)cc2)no1,1,i,-0.2,0.91,118,103,57
COc1ccc(CC(=O)Nc2nccs2)cc1OC,-13,i,-1.6,0.95,94,129,-56
CCOc1ccccc1N1CC(C(=O)Nc2nccs2)CC1=O (stereo not given),-12,i,-0.3,0.94,100,99,28
Cc1ccc(C)c(-n2c(SCC(=O)NCC3CCCO3)nnc2-c2ccoc2C)c1 (stereo not given),-9,i,-1.6,0.95,97,74,-124
COc1ccc(CN2C(=O)C(O)(CC(=O)c3ccc4c(c3)OCO4)c3ccccc32)cc1OC (stereo not given),-3,i,-0.7,0.95,100,182,-14
FC(F)Sc1nnc(-c2cccs2)n1-c1ccccc1,3,i,-2.1,0.9,103,95,48
Cc1cc(NC(=O)CSc2nc3ccccc3c(=O)n2C(C)c2ccccc2)no1 (stereo not given),-6,i,-1.5,0.72,57,113,25
CCOc1cc(C)c(Cl)cc1S(=O)(=O)NCC1CCCO1 (stereo not given),3,i,-2.8,0.78,94,160,50
COC(=O)c1ccc(C23CC4(C2)[C@H](CN(Cc2cccnc2)[C@@H]4c2ccccc2)C3c2ccc(Cl)nc2)cc1 (stereo not given in full),nt,i,nt,0.98,105,nt,nt
O=C(COC(=O)c1cnc(Cl)c(Cl)c1)NCc1cccs1,-3,i,nt,0.9,103,nt,nt
O=C1c2ccccc2C(=O)N1OCc1ccc(Cl)cc1,-2,i,-2.2,0.78,103,nt,nt
CCSc1ccc(C(=O)Nc2ccc(Br)cn2)cc1[N+](=O)[O-],2,i,nt,0.91,105,nt,nt
